# UUG fidelity – modulators of start codon recognition fidelity in yeast. activity score, % at 18.7 µM. S. cerevisiae UUG-firefly luciferase reporter, luminescence/redox ratio. actives 0.13% (n = 350,000);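 active = replicate mean at a twofold rise or more, about +100% in these data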;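 also: firefly luciferase made from a UUG start codon reports start codon fidelity; reporter light over untreated wells divided by growth signal over untreated wells; some hits fall short of that in this replicate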
# MT1-MMP act inh – MT1-MMP (human) activation inhibition; P50281; HT1080 RFP-PRO-GFP cells, GFP/RFP ratio fluorescence, overnight; percent of plate control window, DMSO zero; GFP/RFP ratio change, % at 20 µM; actives 0.061% (n = 360,000);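 active = GFP/RFP ratio change of at least 30% with cell ATP level not reduced by more than half and red fluorescence within 50% of control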; also: strong numbers were not always called active
#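 Assay system: HT1080 cells carrying an RFP-PRO-GFP reporter | Dosing: Single dose of 20 µM compound, 1% DMSO final | Incubation: Cells overnight before dosing, compound overnight, 37 °C, 5% CO2 | Evaluation: GFP/RFP fluorescence ratio | Control set: DMSO and RFP-L50D-GFP cell wells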
# HIV Env fusion – HIV envelope-mediated fusion inhibition; actives 1.1% (n = 360,000); inhibition, % at 12.3 µM; HeLa-JRFL Env/CEM21 cell fusion, luciferase; AID 651610;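 active = mean replicate inhibition score of at least 50 and every replicate individually at or above 50; inconclusive = only one of the two criteria met; inactive = mean below 50 and not all replicates reaching 50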;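 also: 0% = plate neutral controls and 100% = maraviroc near 300 nM; one replicate is shown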
# eIF4H FP inh – inhibitors of RNA binding by human eIF4H; eIF4H fluorescence polarization binding assay; inhibition, % at 35 µM; actives 0.94% (n = 290,000); AID 2012;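 active = 50% or more with normal probe brightness, or confirmed in later tests; inconclusive = above 50% with abnormal brightness, or retests that disagree; inactive = below 50% or failed in later tests; about a fifth of its hits are not listed in these tables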;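 also: calls also rest on retests at 20 µM and on dose response follow-up; 0% = protein and probe with vehicle and 100% = probe without protein; strong numbers were not always called active; many hits fall short of the cut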
# CSC inhib – cancer stem cell inhibition; cancer stem cell-like cells viability, luminescence; actives 1.1% (n = 300,000); inhibition, % at 7.5 µM;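 active = mean at 75% or more and at least half the replicates too; inconclusive = mean and replicates disagree; tested in HMLE shEcad cells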;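 also: 0% = median of negative and 100% = median of positive control wells; the first replicate is given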
# Rce1 inhib – inhibitors of yeast Ras-converting enzyme; Q03530; yeast membranes, quenched prenylated peptide cleavage fluorescence; calls only; actives 0.27% (n = 290,000);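 active = fall in fluorescence gain of 50% or more versus controls, with final raw signal at or below 3038400; inconclusive = same 50% fall but final raw signal above 3038400; inactive = fall in fluorescence gain under 50%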;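 also: plate controls were neutral control wells for no effect and wells lacking membranes for full effect; tested at 10 µM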
# Target sequence (Q03530 whole entry, looked up): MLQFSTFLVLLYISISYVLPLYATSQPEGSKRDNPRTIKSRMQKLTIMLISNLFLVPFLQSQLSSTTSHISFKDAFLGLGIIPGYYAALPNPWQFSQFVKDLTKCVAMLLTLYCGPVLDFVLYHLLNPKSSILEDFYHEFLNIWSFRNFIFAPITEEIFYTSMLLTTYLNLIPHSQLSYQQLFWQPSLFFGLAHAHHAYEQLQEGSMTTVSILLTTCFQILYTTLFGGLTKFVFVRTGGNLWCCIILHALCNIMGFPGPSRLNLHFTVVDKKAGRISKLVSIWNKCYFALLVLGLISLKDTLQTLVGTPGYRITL
# PABP FP inh – blocks human PABP binding to poly(A) RNA; fluorescence polarization; AID 2014; actives 1% (n = 290,000); P11940; inhibition, % at 35 µM;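 active = 50% or more with normal probe brightness, or confirmed in later tests; inconclusive = above 50% with abnormal brightness, or retests that disagree; inactive = below 50% or failed in later tests; about a fifth of its hits are not listed in these tables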;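 also: calls also rest on retests at 20 µM and on dose response follow-up; controls were probe without protein and protein plus probe with vehicle; some compounds called inactive have numbers as strong as hits; many hits fall short of the cut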
# Target sequence (P11940 whole entry, looked up): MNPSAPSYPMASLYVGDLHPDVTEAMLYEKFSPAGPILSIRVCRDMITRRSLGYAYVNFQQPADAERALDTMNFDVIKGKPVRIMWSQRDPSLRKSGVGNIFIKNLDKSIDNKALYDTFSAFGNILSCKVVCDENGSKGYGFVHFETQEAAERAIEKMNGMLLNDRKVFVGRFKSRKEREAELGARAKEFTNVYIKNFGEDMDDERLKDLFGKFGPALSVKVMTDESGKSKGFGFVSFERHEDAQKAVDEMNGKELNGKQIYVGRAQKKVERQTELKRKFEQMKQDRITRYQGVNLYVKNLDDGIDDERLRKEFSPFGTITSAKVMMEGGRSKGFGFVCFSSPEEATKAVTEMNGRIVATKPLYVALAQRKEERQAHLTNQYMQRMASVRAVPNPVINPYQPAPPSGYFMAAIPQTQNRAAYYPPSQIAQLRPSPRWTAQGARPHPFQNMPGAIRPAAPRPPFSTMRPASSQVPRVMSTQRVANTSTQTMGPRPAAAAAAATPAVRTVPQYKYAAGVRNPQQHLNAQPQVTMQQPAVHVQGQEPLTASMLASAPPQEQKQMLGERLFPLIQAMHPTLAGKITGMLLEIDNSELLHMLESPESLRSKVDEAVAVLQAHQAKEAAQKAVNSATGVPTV
# eIF4H FP inh retest – also measured in eIF4H FP inh; calls as there; inhibition, %; compound at 20 µM; confirmation average;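 mean of two retest wells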
# PABP FP inh retest – further read-out of PABP FP inh, marked with its call; inhibition, %; compound at 20 µM; confirmation repeats;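 mean of two retest wells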
# MT1-MMP act inh RFP – further read-out of MT1-MMP act inh, marked with its call; RFP signal change, %; measured here: RFP expression control read;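 0 = vehicle wells; hits needed this value within 50% of zero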
# Starred values were filed as active, the others as inactive; i = inactive; ? = inconclusive; . = no result given. This is a subset; count on the stated rates, not on these rows.
SMILES,UUG fidelity,MT1-MMP act inh,MT1-MMP act inh RFP,HIV Env fusion,eIF4H FP inh,CSC inhib,Rce1 inhib,PABP FP inh,others
CCOC(=O)N1CCN(Cc2nc(-c3cccc(Cl)c3)no2)CC1,12.6,1.8,-3.8,6.5,-8.4,-5.5,i,-0.6,
COCCN1C(=O)N[C@@H](c2cccc(F)c2)C(C(=O)OC)=C1C,-12.5,1.9,-0.3,30.3,0.5,-1.1,i,1.7,
O=C(CSCc1ccc([N+](=O)[O-])cc1)Nc1ccc(S(=O)(=O)N2CCCCCC2)cc1,19.1,-4.1,-9.8,-5.1,5.2,.,i,4.1,
C=CCN(C(=O)CCC(=O)O)C1CC(=O)N(c2ccc(OC)cc2)C1=O (stereo not drawn),-18.7,4.3,4.6,.,-8.5,-7.6,i,-13.7,
Cc1ccc(OCCCC(=O)N2CCOCC2)cc1,-23.4,1.8,3.0,.,-7.6,-2.0,i,2.9,
COc1cccc(N(C(=O)Cc2cccs2)C(C(=O)NC2CCCC2)c2ccncc2)c1 (stereo not drawn),-21.0,-0.4,0.4,-27.2,-0.8,.,i,-4.7,
CS(=O)(=O)c1ccc(NC(=O)C2CC(=O)N(c3ccc4c(c3)OCCO4)C2)cc1 (stereo not drawn),.,1.4,4.0,-1.0,.,-3.5,i,.,
Cc1cc(=O)[nH]c(SCC(=O)N2CCC(Cc3ccccc3)CC2)n1,-1.3,-6.8,-1.2,-11.1,-4.0,-1.0,i,5.1,
Cc1cccc(NC(=O)C(=O)NCCc2c[nH]c3ccccc23)c1C,-2.3,6.5,2.1,-1.9,2.1,18.3,i,-17.4,
Cc1nnc(SC(C)C(=O)Nc2ccc(S(=O)(=O)N3CCCCCC3)cc2)s1 (stereo not drawn),-15.1,-7.1,-3.2,-4.3,-1.1,-9.3,i,-0.8,
CC(C)CCCC(C)CCOC(=O)CN1CCCC1 (stereo not drawn),.,3.3,6.4,-2.2,-6.0,-1.8,i,-9.9,
C/C(Cn1cnc([N+](=O)[O-])n1)=N\NC(=O)c1ccc(O)cc1O,.,7.7,9.0,-2.6,15.3,19.3,i,0.1,
COc1ccc(O)c(C2=Nc3ccccc3N=C(c3cccs3)C2)c1,.,-4.4,-1.5,4.8,-5.5,50.9,i,-12.2,
CCCCN(C)C(=O)C1CCC(CNS(=O)(=O)c2ccc3c(c2)CC(C)N3C(C)=O)CC1 (stereo not drawn),7.4,3.0,-10.1,12.0,2.4,-9.1,i,-5.7,
COc1ccc(CNC(=O)COc2ccc([N+](=O)[O-])cc2)cc1,-11.5,-0.3,3.4,-30.7,-6.6,3.1,i,-2.1,
COc1ccc(C(O)c2cnc(C)n2Cc2ccccc2)cc1 (stereo not drawn),-27.8,-2.4,-5.9,-4.2,.,.,.,.,
COc1ccc(Cc2nnc(SCC(=O)c3ccc(OC)cc3)o2)cc1,-12.0,3.4,-0.1,.,-9.8,-0.7,i,-1.0,
COC(=O)COc1ccc2oc(=O)cc(-c3cc4ccccc4o3)c2c1,-22.0,0.2,1.8,-4.0,5.7,-1.2,i,-2.5,
CCOC(=O)c1c(C)[nH]c(C=Nc2ccccc2)c1O,.,.,.,.,25.3,.,i,42.5,
COc1cccc(C=NN2CCCCCC2)c1OC,-11.0,0.8,-0.1,-88.0,.,.,.,.,
CCC(=O)Nc1ccc(SC#N)cc1C,.,0.5,3.7,.,-6.0,24.0,i,4.9,
C/C=C/c1ccc(OCCCCN(C)Cc2ccccc2)c(OC)c1,-11.7,3.5,-1.5,?,14.0,.,i,3.6,
O=c1c2ccccc2nc(-c2ccco2)n1CCc1ccc(O)cc1,-18.7,-9.6,-2.9,3.9,-9.7,24.1,i,-8.3,
c1ccc2ncc(-n3cnnn3)cc2c1,-12.9,-2.6,1.4,-27.6,4.9,-6.5,.,4.8,
CC(=O)Nc1ccc(C(=O)Nc2ccc3c(c2)OCCO3)cc1,-21.9,3.4,6.3,-3.0,-16.5,-4.2,i,-5.5,

# By substructure: those above with a halogen.
SMILES,UUG fidelity,MT1-MMP act inh,MT1-MMP act inh RFP,HIV Env fusion,eIF4H FP inh,CSC inhib,Rce1 inhib,PABP FP inh,others
CCOC(=O)N1CCN(Cc2nc(-c3cccc(Cl)c3)no2)CC1,12.6,1.8,-3.8,6.5,-8.4,-5.5,i,-0.6,
COCCN1C(=O)N[C@@H](c2cccc(F)c2)C(C(=O)OC)=C1C,-12.5,1.9,-0.3,30.3,0.5,-1.1,i,1.7,

# Later entries
SMILES,UUG fidelity,MT1-MMP act inh,MT1-MMP act inh RFP,HIV Env fusion,eIF4H FP inh,CSC inhib,Rce1 inhib,PABP FP inh,others
CC(C)(C)S(=O)(=O)N1C[C@H]2CC/C=C\C/C(c3ccccc3)=C\2[C@@H]1CCO,-4.7,-3.1,0.0,-99.7,.,.,.,.,
Fc1ccccc1CSc1nc2ccccc2[nH]1,-30.4,0.5,-2.5,.,-9.4,-6.7,i,3.6,
Cn1cc(S(=O)(=O)NC2CCCCC2)c(=O)n(C)c1=O,.,-0.6,2.4,1.8,.,-12.4,i,.,
O=C(Nc1ccc(Cl)c(Cl)c1)N1N=CCC1c1ccccc1 (stereo not drawn),.,2.0,-7.8,20.4,-3.4,.,i,-5.4,
CC1(C)CC(=O)C2=C(C1)N(Cc1ccccc1)C(=O)C2(NC(=O)C(C)(C)C)C(F)(F)F (stereo not drawn),1.2,3.3,5.9,8.0,-5.4,8.7,i,3.0,
O=C(COC(=O)c1cc(Br)ccc1O)NC12CC3CC(CC(C3)C1)C2,-5.9,0.5,2.5,4.4,.,-11.4,.,.,
Cc1nn(Cc2ccccc2Cl)c(C)c1C(=O)N1CCN(c2ccccc2)CC1,-2.9,-2.1,-2.3,-127.1,-5.4,3.7,i,-9.7,
CC(C)NC(=O)NC(=O)COC(=O)c1ccccc1F,-11.1,7.2,6.9,5.2,1.3,-14.6,i,-3.9,
O=C(Nc1cccc(C(=O)N2CCCCCC2)c1)c1ccco1,-10.5,1.0,4.5,.,-6.2,-6.4,i,-2.2,
CC1(C(=O)OCC(=O)Nc2nc(-c3ccc(F)c(F)c3)cs2)CC1(Cl)Cl (stereo not drawn),-16.9,0.9,0.0,.,1.0,6.0,i,4.5,
COc1cc2ccccc2cc1C(=O)Nc1ccc(S(=O)(=O)Nc2cc(C)on2)cc1,.,8.7,-1.1,-45.4,2.1,-1.3,i,11.1,
CN=c1sc(C(=O)Nc2cccc(Cl)c2)cc(=O)n1C,-16.0,-10.4,-7.2,-10.5,0.9,-2.0,i,8.4,
COc1ccc(OCC(O)CN2CC(C)OC(C)C2)cc1 (stereo not drawn),-11.2,3.7,1.2,-9.4,-1.3,8.8,i,1.7,
CC(=O)c1cccc(NC(=O)N2C3CCCC2CC(NC(=O)C2CC2)C3)c1 (stereo not drawn),2.5,1.4,4.3,-2.1,1.4,6.9,i,1.0,
O=C(O)Cc1sc(=O)[nH]c1O,1.9,-1.9,0.3,0.4,.,.,.,.,
C#CCOCCOCCOCCNc1nc(N2CCN(C(=O)[C@H]([C@@H](C)CC)n3cc([C@@H](N)CC(C)C)nn3)CC2)nc(N2CCN(C(=O)[C@H](Cc3ccc(O)cc3)n3cc([C@@H](N)CC(C)C)nn3)CC2)n1,.,.,.,-44.0,-6.6,6.8,i,18.0,
Cn1cccc1CC(=O)N/N=C/c1ccc(Cl)cc1,.,-0.2,-0.7,2.9,-9.1,-6.7,i,10.1,
O=C(CSc1nnc(Nc2ccccc2)s1)NCCN1C(=O)CSC1=O,-6.8,.,.,.,6.6,-4.3,i,17.5,
CS(=O)(=O)Nc1ccccc1C(=O)N1CCN(c2ccccc2)CC1,.,.,.,-11.0,-6.8,0.1,i,1.6,
COc1cccc2c1CCc1c-2nc2ccccc2c1C(=O)O,.,1.7,6.4,-11.4,4.6,12.7,i,11.3,
CCS(=O)(=O)N1CCN(c2ccc(C(=O)NC34CC5CC(CC(C5)C3)C4)cc2[N+](=O)[O-])CC1,.,4.8,-5.2,40.8,3.5,9.0,i,7.0,
Cc1ccc2c(c1)NC(c1cccs1)C1=C(CC(C)(C)CC1=O)N2 (stereo not drawn),-12.3,2.2,1.0,7.9,85.7*,-18.9,i,11.3*,eIF4H FP inh retest=79.6*;PABP FP inh retest=62.6*
COc1ccc(CNC(=O)COC(=O)[C@@H]2CCCN2C(=O)c2cccs2)cc1,-8.7,0.2,3.6,-6.9,.,-13.1,.,.,
Cc1ccc(N(CC(=O)Nc2ccccc2-c2ccccc2)S(=O)(=O)c2ccccc2)c(C)c1,.,-2.4,-6.5,3.4,-5.0,26.5,i,6.6,
CCN(CC)C(=O)[C@H]1CC(CC(=O)NCCN2CCOCC2)C(=O)N2CCc3c([nH]c4ccc(OC)cc34)[C@]12C (stereo partly drawn),1.6,-0.3,5.5,-6.6,.,.,.,.,

# (list continues)
SMILES,UUG fidelity,MT1-MMP act inh,MT1-MMP act inh RFP,HIV Env fusion,eIF4H FP inh,CSC inhib,Rce1 inhib,PABP FP inh,others
CC(C)(C)CC(=O)NCc1cccs1,-21.3,1.4,4.7,-3.3,-4.6,0.3,i,7.0,
CCN(CC)c1ccc(C(=O)OCC(=O)Nc2ccccc2-c2ccccc2)cc1,-3.9,-4.7,-13.9,?,-2.9,23.8,i,?,
CCOC(=O)N/N=C/C=C/c1ccccc1[N+](=O)[O-],-4.5,-0.1,3.8,-11.4,11.2,16.5,i,4.8,
Cc1cc(C)nc(SCC(=O)NCc2ccco2)n1,-17.1,-3.2,1.2,.,4.1,-10.9,i,29.1,
COc1ccc(N=Cc2ccc[nH]2)cc1,-18.4,4.9,5.5,.,-2.9,5.2,i,9.0,
CCn1c(=O)cc(OCC(=O)NC2CCCCC2)c2ccccc21,-2.5,3.7,0.9,-15.0,-11.7,-10.5,i,1.4,
Cc1cc(C)n(-c2ccc(N3CCOCC3)nn2)n1,-40.1,2.7,4.1,.,2.7,-9.4,i,4.6,
Cc1nnc(NC(=O)CSc2nnc(-c3ccoc3C)n2CC(C)C)s1,-12.2,1.3,3.2,-24.9,-3.9,-15.0,i,0.5,
O=C1N=C(N2CCN(c3ccccc3)CC2)S/C1=C\c1ccco1,.,-3.6,2.2,18.6,62.3,3.7,i,-8.2,eIF4H FP inh retest=-6.0;PABP FP inh retest=5.9
COc1cc(C(=O)O)cc(NC(=O)c2ccco2)c1OC,.,3.9,1.2,-17.2,4.8,-13.6,i,10.1,
O=C(NCCc1ccccc1)C1CCCN1S(=O)(=O)c1cccc2nsnc12 (stereo not drawn),.,-2.9,1.3,-0.6,-0.9,-1.5,i,-3.5,
Cc1ccnc(SCC(=O)N2CCN(C(c3ccccc3)c3ccccc3)CC2)n1,-8.0,-3.8,-2.2,3.5,-4.2,-10.9,i,-5.1,
CCOC(=O)C[C@H]1c2ccc(C(F)(F)F)cc2S(=O)(=O)N1C1CCCC1,-5.1,0.1,2.7,6.8,.,-2.8,i,.,
C/C(=N\NC(=O)CCn1nc(C)cc1C)C(C)(C)C,.,4.6,1.8,-0.9,-10.6,-10.0,i,-4.7,
CN(C)c1ccc(P(=O)(OCc2ccccc2)C(O)c2ccc(Br)cc2)cc1 (stereo not drawn),-6.0,-1.5,-1.8,5.8,6.7,-9.8,i,12.0,
CCc1ccc2c(c1)cc(CN(C(=S)Nc1ccccc1Cl)C1CC1)c1nnnn12,-14.2,0.4,2.9,-27.4,-4.4,6.0,i,-2.9,

# Source: PubChem BioAssay
